Compound activity from PubChem BioAssay.
PINK1 modulator: PINK1 expression modulation | PINK1 immunofluorescence, high-content cytometry, 24 h | Potency, µM (titrated, usually from 76.6 µM), for the others: at the highest dose activation (PINK1 increase), most hits filed as activators | 410,000 tested, 0.2% active | AID 624263; active = well fitted activation curve with a large enough effect; inconclusive = small, poorly fitted or top-dose-only effect; inactive = flat fitted curve, though single readings scatter; cell line not stated here;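 note: potency is the fitted concentration of half-maximal effect; % of control where 0% means no effect; nearly all actives have a fitted effect of over 65% in size; a mitochondrial uncoupler was the plate control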
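Stable cell line, 250 cells/well, 12 h attachment; compounds pinned at 5 concentrations, 24 h; CCCP control. Fixed with nuclear dye, primary antibodies 12 h at 10 degrees C, secondary plus cell stain; laser-scanning cytometer read.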
Menin MLL FP FL: displaces fluorescein MLL peptide from human menin | Fluorescence polarization, fluorescein-MLL peptide displacement from menin | FP activity change, % at 61.4 µM | 290,000 tested, under 10 active; inconclusive = falling polarisation curve, or a change in total fluorescence; inactive = total fluorescence flat and polarisation flat or rising; no compound was filed as active; the % refers to the polarisation; negative = inhibition;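 note: % of control where 0% means no effect; inhibitors lower the polarisation; unlabelled MLL peptide was the positive control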
TRPML1 blocker: inhibitors of human TRPML1 channel. Q9GZU1. TRPML1-inducible cells, Ca2+ dye fluorescence, FDSS; hits give low values; inhibition of EC80 agonist-evoked calcium signal. activity change, negative = inhibition, % (test concentration not listed). 390,000 tested, 0.02% active. AID 624415; in the data active means activity change below about -50%; inconclusive means about -30% to -50%; inactive means above about -30%;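 note: stimulus is agonist 54-4 at its EC80 concentration; % is set by controls: 0 for no effect and ±100 for the full control effect; compound concentration not given in the record; the text of the record puts the active cut at -80%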
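Calcium fluorescence in TRPML1-DL cells induced overnight with Tet: a 110 s read after compound pin addition, then a 110 s antagonist read after challenge with 54-4 at 4 uM final (EC80).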
ClpP mod: qHTS Assay for Activators of ClpP; 340,000 tested, 1.9% active; ATP-dependent Clp protease proteolytic subunit (Bacillus subtilis (strain 168)), P80244; purified B. subtilis ClpP, FRET peptide cleavage, 20 min; AID 651965, 2013; Potency, µM (titrated, usually from 57.5 µM), without a hit: at the highest dose activity change, negative = active; active = well fitted falling curve with a large enough effect; inconclusive = small, poorly fitted or top-dose-only effect; inactive = no such curve, though single readings can be large or run the other way; note: potency is the fitted concentration of half-maximal effect; the source files actives as falling curves though it sought activators and does not explain the sign; nearly all actives have a fitted effect of over 65% in size; many hits overshoot -100%
Target sequence (P80244 whole entry, looked up): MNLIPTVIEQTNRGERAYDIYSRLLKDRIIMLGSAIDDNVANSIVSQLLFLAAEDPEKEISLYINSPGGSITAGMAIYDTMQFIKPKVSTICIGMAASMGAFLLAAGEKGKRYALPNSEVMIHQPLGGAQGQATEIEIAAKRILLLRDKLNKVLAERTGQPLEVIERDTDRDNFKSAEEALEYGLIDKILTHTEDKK
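FRET quenching reversal measured ClpP activation: 10 microg/mL B. subtilis ClpP at pH 8 with the FRET-FV decapeptide, read at 430 nm after 320 nm excitation. The 20-min minus 0-min signal was scaled between DMSO/no-enzyme wells and ADEP (5.8 microM final).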
TRPML1 ag: agonists of human TRPML1 channel; Q9GZU1; TRPML1-expressing cells, Ca2+ dye fluorescence, FDSS; host cell line not named in the record; reference of the full effect not given here; activation, % (concentration not given with the values); 410,000 tested, 0.12% active; in the data active = activation above about 50%; inconclusive = about 30% to 50%; inactive = below about 30%; note: 0% is about no effect; the text of the record puts the active cut at 80%
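Tet-induced TRPML1-DL cells, 1,500 per well, cultured overnight, were loaded with a no-wash Ca2+ dye for 45–90 min. Calcium fluorescence was recorded on the FDSS for 110 s after compound addition, before the EC80 agonist (4 uM 54-4) was added.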
Sfp inh: inhibitors of Bacillus subtilis Sfp phosphopantetheinyl transferase | Biochemical Sfp PPTase activity, qHTS | AID 1490 | Potency, µM, for inactives: max response, negative = inhibition, hits mostly inhibitors | 310,000 tested, 3.5% active; active = well fitted inhibition curve with a large enough effect; inconclusive = small, poorly fitted or top-dose-only effect, or another doubt; inactive = no such curve, though single readings can be large or run the other way;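 note: the enzyme is Sfp with the accession as filed and its product quenches rhodamine fluorescence; potency is the fitted concentration of half-maximal effect; 0% = enzyme reaction without inhibitor and -100% = no enzyme wells; top concentration of the series not given in the record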
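Buffer: 50 mM Hepes-Na pH 7.6, 10 mM MgCl2, 0.01% Nonidet P-40, 0.01% BSA. Enzyme 15 nM, pre-exposed to compound 15 min; substrates then added and fluorescence change tracked over 30 min.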
TRPV1 potentiator: human TRPV1 potentiation. Q8NER1. TRPV1-expressing cells, Fluo-8 calcium influx, capsaicin EC20 potentiation; host cell line not named in the record; control for the full effect not named in the record. 320,000 tested, 0.02% active. AID 540277. potentiation, % at 8.33 µM; active means potentiation above 80%; inconclusive means 30% to 80%; inactive means below 30%; note: 0% is about no effect
Target sequence (Q8NER1 whole entry, looked up): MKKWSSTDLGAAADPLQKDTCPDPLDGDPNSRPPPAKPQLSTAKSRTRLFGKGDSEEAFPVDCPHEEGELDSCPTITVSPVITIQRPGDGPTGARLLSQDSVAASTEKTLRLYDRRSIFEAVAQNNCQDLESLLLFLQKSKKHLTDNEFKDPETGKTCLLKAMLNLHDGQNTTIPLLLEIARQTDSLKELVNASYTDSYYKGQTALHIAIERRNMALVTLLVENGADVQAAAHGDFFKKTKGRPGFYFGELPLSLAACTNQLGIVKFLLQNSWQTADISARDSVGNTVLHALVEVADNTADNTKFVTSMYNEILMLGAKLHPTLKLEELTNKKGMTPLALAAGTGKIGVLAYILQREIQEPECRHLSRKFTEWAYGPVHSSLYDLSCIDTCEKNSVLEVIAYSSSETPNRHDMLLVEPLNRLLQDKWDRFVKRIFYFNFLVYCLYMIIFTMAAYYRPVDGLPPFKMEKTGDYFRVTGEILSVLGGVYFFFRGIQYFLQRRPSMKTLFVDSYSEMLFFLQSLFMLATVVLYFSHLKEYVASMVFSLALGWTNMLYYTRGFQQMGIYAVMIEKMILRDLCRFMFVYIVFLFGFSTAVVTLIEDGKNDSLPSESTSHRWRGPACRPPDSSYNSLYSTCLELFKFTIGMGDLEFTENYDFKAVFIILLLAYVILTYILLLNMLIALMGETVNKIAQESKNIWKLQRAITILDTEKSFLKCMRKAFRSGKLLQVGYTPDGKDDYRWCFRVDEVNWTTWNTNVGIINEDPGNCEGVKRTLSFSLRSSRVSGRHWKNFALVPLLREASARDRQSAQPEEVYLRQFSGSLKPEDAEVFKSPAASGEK
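TRPV1-expressing cells were cultured overnight at 35.5C and loaded with Fluo-8 calcium dye for 40 to 90 min at room temperature. After a 10 s baseline, compound was added and calcium influx was read kinetically for 3 min (ex 480/em 520 nm).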
Starred values were filed as active, the others as inactive; ? = inconclusive; . = no result given; [ ] = another dose, or the depositor's remark.

SMILES | PINK1 modulator | Menin MLL FP FL | TRPML1 blocker | ClpP mod | TRPML1 ag | Sfp inh | TRPV1 potentiator
Cn1c(Cn2c(=O)sc3ccccc32)nnc1SCC(=O)NCc1ccc(F)cc1 | 0.7% | 1.8 | -5.4 | 0.1% | 1.8 | 28.1% | 1.0
O=C(Cc1c(F)cccc1Cl)N1CCN(C(=O)c2ccco2)CC1 | ? | 6.2 | -9.6 | -2.1% | 0.4 | 12.1% | -1.0
CC(C)O/C(=N/S(=O)(=O)c1ccc(Cl)cc1)c1ccccc1 | 1.4% | . | -5.9 | . | -1.0 | . | .
Cc1ccc(F)c([C@H]2C3C=CCC(c4ccccc4)C3C(=O)N2Cc2ccccc2)c1 (stereo not given in full) | 2.5% | -2.7 | 36.2 | -0.7% | 3.0 | -7.6% | -33.9
O=C(c1cccc(S(=O)(=O)N2CCN(c3ccc(F)cc3)CC2)c1)N1CCCC1 | -1.3% | . | -17.7 | . | -0.4 | . | .
CCc1cccc(CC)c1N1C(=O)CSCC1=O | -0.1% | . | -11.7 | 0.5% | -0.8 | . | .
COc1ccccc1C(=O)/C=C/c1ccc(N2CCCCC2)c([N+](=O)[O-])c1 | -2.4% | -0.4 | 6.7 | -1.0% | -0.4 | 0.8% | ?
O=C(NCCc1ccccc1)c1cnn2c(C(F)F)cc(C3CC3)nc12 | -1.5% | -2.6 | 3.5 | -10.4% | 2.8 | -6.1% | 6.9
Cc1cccc(N2CC(C(=O)NCCC3=CCCCC3)CC2=O)c1C (stereo not given) | -1.2% | . | -0.7 | -2.7% | 0.5 | . | 8.8
Cc1nc2ccccn2c1C(=O)OCC#N | 1.3% | 0.1 | 27.5 | -2.2% | 0.4 | 26.8% | -4.3
O=C(c1ccc(C(F)(F)F)cc1)n1ccc(-c2cccs2)n1 | 6.3% | 0.8 | -6.3 | 0.6% | 0.1 | 31.9%[activator] | -3.3
CCOc1ccc(N(CC(=O)NC2CCCC2)S(=O)(=O)c2c(C)noc2C)cc1 | 3.4% | -1.0 | 4.4 | 2.0% | 1.4 | 22.1% | .
CCOc1ccc(N(C(=O)c2cc3ccccc3oc2=O)C2C=CS(=O)(=O)C2)cc1 (stereo not given) | 0.3% | -1.5 | -2.6 | -18.3% | -0.3 | 10.3% | -2.1
CCOC(=O)[C@]12CCC=C1N(Cc1ccc3c(c1)OCO3)C(=O)[C@H](CC(=O)NCc1ccc(C)o1)C2 | -0.8% | . | . | -8.2% | -0.9 | . | .
Cc1cc(SCC(=O)OCC(=O)N(C)C2CCS(=O)(=O)C2)c(C)cc1Br (stereo not given) | 1.7% | . | -5.3 | -3.1% | -0.6 | . | -9.3
COc1cc(NC(=O)c2cc3nc(C)cc(C)n3n2)c(OC)cc1Cl | 14.0% | -2.1 | -4.3 | -8.7% | 11.4 | ? | 1.2
Oc1ccc(Cl)cc1C=Nc1ccc2c3c(cccc13)CC2 | -1.7% | ? | -4.2 | 0.2% | 2.2 | -20.1% | 5.7
O=C1C2C3C=CC(C4CC34)C2C(=O)N1Cc1ccco1 (stereo not given) | 0.8% | 1.5 | -2.3 | -3.3% | -0.3 | ? | 2.6
COc1cc(Cl)c(C)cc1NC(=O)COc1cc(C)nc(C(C)C)n1 | -0.2% | 2.7 | -2.3 | -1.2% | 0.1 | 8.0% | -15.2
CCNC(=O)CSc1nnc(-c2cccc(S(=O)(=O)N3CCOCC3)c2)o1 | 2.1% | . | -12.7 | . | -0.2 | . | ?
CCC(C)(C(=O)NC1CCCCC1)N(C(=O)C1CCC(=O)N1)c1ccccc1 (stereo not given) | -0.4% | 5.2 | 5.4 | -2.3% | 0.2 | 21.5% | 0.6
N#CCSc1nc2ccccc2c(=O)n1CCC(=O)NCCc1ccccc1 | . | 0.5 | 2.1 | -3.1% | -0.1 | 19.2% | 0.1
CCOc1ccccc1CNc1ncnc2onc(-c3ccc(F)cc3)c12 | 8.2% | . | 59.6 | -11.6% | 3.0 | . | .
CN(C(=O)c1ccc(-c2ccccc2)cc1)C1CCCCC1 | 14.1% | . | -11.6 | . | 1.0 | . | .
O=C(NCc1cccc(Br)c1)C1CCN(C(=O)c2sccc2-n2cccc2)CC1 | 0.1% | . | -7.1 | -2.0% | 1.0 | . | .
Next records follow.
SMILES | PINK1 modulator | Menin MLL FP FL | TRPML1 blocker | ClpP mod | TRPML1 ag | Sfp inh | TRPV1 potentiator
O=[N+]([O-])c1ccc(-c2csc(Nc3ccccc3)[n+]2Cc2ccccc2)cc1 | 0.1% | 6.7 | 55.8 | 0.9% | 1.0 | -9.8% | 0.5
Cc1ccc(NC(=O)CN2C(=O)COc3ccc(S(=O)(=O)N4CCCCC4)cc32)cc1N(C)C | -0.5% | . | -13.3 | -0.6% | 4.2 | . | .
Cc1ccccc1C(=O)N1CCCC(N2CCN(Cc3ccc4c(c3)OCO4)CC2)C1 (stereo not given) | 1.0% | . | 8.6 | 1.6% | 0.0 | 10.1% | 3.0
CCN1CCN(C(CNS(=O)(=O)c2ccc(C)cc2)c2cccnc2)CC1 (stereo not given) | -4.0% | . | 6.7 | -3.5% | -0.4 | 15.5% | 4.8
O=C1c2ccccc2C(=O)N1c1ccc(S(=O)(=O)N2CCOCC2)c2ccccc12 | -0.8% | . | . | 0.0% | -0.3 | . | .
C=C(C)[C@@H]1CCC2(C(=O)O)CC[C@]3(C)[C@H](CC[C@@H]4[C@@]5(C)CCC(=O)C(C)(C)[C@@H]5CC[C@]43C)[C@@H]12 (stereo not given in full) | 1.6% | 2.0 | 59.1 | 1.8% | -0.1 | -1.5% | 1.2
O=C(c1[nH]c(C(F)(F)F)nc1-c1ccccc1)N1CCN(c2c(Cl)cncc2Cl)CC1 | 1.5% | . | . | -4.9% | 14.4 | . | .
CC(=O)c1ccc(S(=O)(=O)NCC(=O)NC(c2nc3ccccc3[nH]2)C(C)C)cc1 (stereo not given) | -0.8% | . | 17.9 | -12.3% | -0.1 | . | .
O=C(O)c1cc(-c2ccc(/C=C3\NC(=O)N(c4ccccc4)C3=O)o2)ccc1Cl | -0.7% | ? | -3.9 | -4.4% | -0.6 | 79.4µM* | 23.5
O=C(CNCCO)Nc1ccc(F)c(Cl)c1 | 3.9% | 0.0 | 0.3 | . | 1.7 | -0.4% | -18.5
CCOC(=O)c1c(C)[nH]c(C(=O)N2CCCC(C(=O)c3ccccc3OC)C2)c1C (stereo not given) | 0.5% | 4.0 | 27.4 | . | 2.8 | 9.9% | 17.2
CCOC(=O)C(C)CC(C)C(=O)N1CCOCCN(C(=O)C(C)CC(C)C(=O)OCC)CCOCC1 (stereo not given) | -1.1% | 1.8 | -13.1 | 0.7% | 2.8 | 12.6% | -2.3
CCOC(=O)c1ccc(NC(=O)CSc2nnc(CCc3ccc(C)o3)n2-c2ccccc2)cc1 | 2.0% | 4.6 | -3.8 | 0.6% | 2.4 | 15.8µM* | -3.8
COc1cccc(NC(C)(C)c2nnnn2-c2c(C)cccc2C)c1 | 0.5% | 1.7 | 3.4 | . | 2.0 | ? | .
Cc1ccccc1Nc1nnc(SCC(=O)NC2CCCc3ccccc32)s1 (stereo not given) | 2.8% | 0.0 | 40.1 | 0.9% | 5.4 | 3.5% | 3.1
Cc1ccc(C)n1-n1cnc2sc3c(c2c1=O)CCCCC3 | 3.7% | 3.1 | -4.2 | -4.3% | -0.1 | 7.9% | -10.8
C=CCn1c(N)c(C(=O)OC(C)(C)C)c2nc3ccccc3nc21 | 4.9% | 9.1 | -2.2 | 0.0% | 0.6 | 14.2% | -18.0
O=C(C1CC1)N1c2ccccc2Sc2ccccc21 | 5.4% | -0.9 | -5.1 | . | 1.6 | -3.9% | 11.4
O=C(COC(=O)CCC(=O)c1ccc(Cl)cc1)NCc1ccc(F)cc1 | 2.1% | . | 1.4 | 0.0% | -0.5 | . | .
CCOC(=O)c1c(C)nc(C)c(C(=O)OCC)c1-c1ccco1 | 2.0% | 0.8 | 6.5 | -0.1% | -0.6 | -6.1% | -7.7
COC(=O)c1cc(Cl)c(NC(=O)C(C)C)cc1OC | 0.1% | 0.3 | 7.9 | . | -0.2 | 15.4% | 6.3
CC(Oc1ccc2ccccc2c1)C(=O)NNC(=O)Nc1ccccc1 (stereo not given) | -0.3% | 4.3 | -2.7 | 0.9% | 3.4 | 2.1% | 27.1
O=C(N=Nc1c(O)[nH]c2ccc(F)cc12)C1COc2ccccc2O1 (stereo not given) | 6.1% | 2.0 | 8.1 | 1.0% | 0.7 | 30.3%[activator] | 3.5
Nc1cc(Cl)ccc1C(=O)OCC(=O)N1CCCCCC1 | 7.8% | . | -8.4 | 4.3% | 0.7 | . | .
Cc1nc2c(-c3ccc(F)cc3)c(C)nn2c(C)c1CCC(=O)Nc1ccccc1F | 7.4% | 6.3 | . | 9.6% | . | ? | -9.4
Cc1ncc(C[n+]2csc(CCOC(=O)CC34CC5CC(CC(C5)C3)C4)c2C)c(N)n1 | -0.8% | 1.3 | 12.6 | -14.2% | -0.8 | -0.6% | 0.1
O=C1C(=O)N(O)C2CCCCC2N1O (stereo not given) | 0.5% | 3.6 | -5.7 | 0.8% | -0.1 | -18.3% | -7.9
COc1ccccc1CNC(=O)CSc1ccc(-c2cccs2)nn1 | 2.8% | -5.2 | -5.5 | . | -0.4 | 5.6% | 1.5
CN(C(=O)c1ccnn1C)C1CCCN(Cc2ccccc2F)C1 (stereo not given) | -0.1% | . | 4.5 | -0.1% | 3.4 | 16.6% | -10.6
Cc1nc2ccc(Cl)cc2c(-c2ccccc2)c1C(=O)N(C)C | -0.2% | -3.7 | -3.1 | -2.8% | -0.7 | -7.3% | 0.4

Compound profiles, as listed above:
COC(=O)c1cc(Cl)c(NC(=O)C(C)C)cc1OC across the screens: PINK1 modulator: 0.1%; Menin MLL FP FL: 0.3; TRPML1 blocker: 7.9; ClpP mod: .; TRPML1 ag: -0.2; Sfp inh: 15.4%; TRPV1 potentiator: 6.3
O=C(O)c1cc(-c2ccc(/C=C3\NC(=O)N(c4ccccc4)C3=O)o2)ccc1Cl across the screens: PINK1 modulator: -0.7%; Menin MLL FP FL: ?; TRPML1 blocker: -3.9; ClpP mod: -4.4%; TRPML1 ag: -0.6; Sfp inh: 79.4µM*; TRPV1 potentiator: 23.5

The order is random; about 4.4% have a hit in one of these screens.
